# Screening results deposited in PubChem by National Center for Advancing Translational Sciences (NCATS).
# TrxR1 substrate: qHTS Assay for Substrates of Mammalian Selenoprotein Thioredoxin Reductase 1 (TrxR1): qHTS; Thioredoxin reductase 1, cytoplasmic (Rattus norvegicus), O89049; hit rate 0.01% among 390,000; purified TrxR1 substrate turnover, NADPH consumption readout; Potency, µM (series often up to 114 µM), for the others: at the top dose activity change, negative = substrate turnover; further: potency means the concentration at half of the fitted maximal effect; on the % scale 0 is the no-effect control and ±100 the full control effect; nearly all actives have a fitted effect of over 50% in size
# Target sequence (O89049 whole entry, looked up): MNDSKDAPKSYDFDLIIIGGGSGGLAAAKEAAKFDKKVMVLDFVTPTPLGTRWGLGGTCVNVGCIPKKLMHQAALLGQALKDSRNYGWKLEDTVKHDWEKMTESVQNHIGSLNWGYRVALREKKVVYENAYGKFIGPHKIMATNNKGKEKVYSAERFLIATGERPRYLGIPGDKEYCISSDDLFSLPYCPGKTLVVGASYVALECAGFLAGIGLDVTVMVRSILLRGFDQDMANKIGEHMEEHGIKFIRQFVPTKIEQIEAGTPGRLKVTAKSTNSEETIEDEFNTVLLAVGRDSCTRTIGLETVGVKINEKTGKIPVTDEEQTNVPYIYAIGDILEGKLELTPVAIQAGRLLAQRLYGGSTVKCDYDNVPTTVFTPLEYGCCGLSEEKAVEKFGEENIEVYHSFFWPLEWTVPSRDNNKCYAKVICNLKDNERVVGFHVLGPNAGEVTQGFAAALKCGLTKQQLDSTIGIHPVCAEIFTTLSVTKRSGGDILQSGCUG
#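 Rat TrxR1, dispensed at 90 nM, was prereduced with 400 uM NADPH (final) for 5 min at ~22 deg C, then incubated with compound 15 min before 400 uM selenite. A first-read NADPH fluorescence drop versus no-compound background flagged substrates.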
# Vif-A3G inh: qHTS for Inhibitors of Vif-A3G Interactions: qHTS; hit rate 0.076% among 410,000; AID 602310, 2012; HeLa A3G-eYFP + Vif (tagged APOBEC3G with the HIV-1 protein that degrades it), YFP fluorescence, overnight; DNA dC->dU-editing enzyme APOBEC-3G (Homo sapiens), Q9HC16; Potency, µM (highest dose often 46.1 µM), for inactives: at the highest dose activity, negative = active, hits mostly inhibitors;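 further: potency means the concentration at half of the fitted maximal effect; on the % scale 0 is the no-effect control and ±100 the full control effect; nearly all actives have a fitted effect of over 60% in size; hits raise eYFP signal because A3G escapes Vif-driven loss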
# Target sequence (Q9HC16 whole entry, looked up): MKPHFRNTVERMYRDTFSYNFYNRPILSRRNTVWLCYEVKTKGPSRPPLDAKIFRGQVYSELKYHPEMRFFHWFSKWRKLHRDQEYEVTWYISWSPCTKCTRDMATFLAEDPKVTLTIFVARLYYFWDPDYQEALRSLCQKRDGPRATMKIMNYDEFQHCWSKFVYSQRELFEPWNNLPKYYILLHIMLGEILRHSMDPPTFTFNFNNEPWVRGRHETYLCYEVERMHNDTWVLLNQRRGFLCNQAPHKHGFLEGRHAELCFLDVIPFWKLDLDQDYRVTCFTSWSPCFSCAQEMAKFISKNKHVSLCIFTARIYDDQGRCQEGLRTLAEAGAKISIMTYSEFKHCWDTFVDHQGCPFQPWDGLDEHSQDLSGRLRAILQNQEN
#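 HeLa cells stably expressing Vif and C-terminally eYFP-tagged A3G, seeded overnight at 37 deg C, then exposed to compound by pintool overnight at 37 deg C. Rise in yellow fluorescence (Ex 488/Em 500-530, Acumen) marks blocked Vif-driven A3G degradation.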
# Glioma ERSR ind: qHTS for Inducers of the Endoplasmic Reticulum Stress Response (ERSR) in Human Glioma: qHTS; hit rate 0.02% among 420,000; U87-MG GRP78 promoter luciferase reporter, 16 h; Potency, µM, for the others: at the top dose activation, most hits filed as activators; further: potency means the concentration at half of the fitted maximal effect; series mostly up to about 76 µM; % of control where 0% means no effect; nearly all actives have a fitted effect of over 35% in size
#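 Stably transfected U87-MG glioma cells carrying a GRP78-based luciferase sensor; 16 h compound incubation. Luminescence end-point read 10 min after Bright-Glo addition at room temperature.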
# PI4K2A inh: qHTS for small molecular inhibitors of PI4K2A. purified PI4K2A, ADP-Glo luminescence, 1 h; active compounds read low. activity change, negative = inhibition, % at 76.9 µM. AID 1346378, 2018. hit rate 0.13% among 420,000; in the data active means activity change below about -50%; inconclusive means mostly about -30% to -49%;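 further: -100% = wells without enzyme as full effect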
#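 In this quantitative HTS, ADP production by PI4K2A was quantified luminescently after 1 h at ambient temperature; 100 microM adenosine served as plate-quality control.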
# RXFP1 agonist: qHTS Assay for Agonists of the Relaxin Receptor RXFP1; HEK293T-RXFP1 cAMP TR-FRET, 30 min; response scale: percent of porcine relaxin response, buffer zero; Potency, µM (series often up to 57.5 µM), for the others: at the top dose activation, hits mostly activators; hit rate 0.3% among 370,000; Relaxin receptor 1 (Homo sapiens), Q9HBX9; further: potency means the concentration at half of the fitted maximal effect; on the % scale 0 is the no-effect control and ±100 the full control effect; nearly all actives have a fitted effect of over 60% in size; many of its hits are not listed in these tables
#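 HEK293T cells stably expressing RXFP1 were pretreated with the PDE4 inhibitor Ro 20174, exposed to compounds for 30 min at 37C, lysed, and cAMP was read by TR-FRET. Data normalized to buffer (basal) and 29 nM porcine relaxin (100%).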
# Vif-A3F inh: qHTS for Inhibitors of Vif-A3F Interactions: qHTS | HeLa A3F-eYFP + Vif (tagged APOBEC3F with the HIV-1 protein that degrades it), YFP fluorescence increase | Potency, µM (doses to about 46.1 µM), inactives show at the top dose activity, negative = active | hit rate 0.2% among 390,000 | AID 602313, 2012; further: potency means the concentration at half of the fitted maximal effect; % of control where 0% means no effect; nearly all actives have a fitted effect of over 65% in size
#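 HeLa cells stably expressing A3F-eYFP plus Vif, plated and incubated overnight at 37 deg C, then exposed to compounds overnight at 37 deg C. Blocked degradation read as raised yellow fluorescence (Ex 488/Em 500-530).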
# LDHA block: qHTS assay for inhibitors of human lactate dehydrogenase; purified LDHA, NADH/diaphorase-resazurin fluorescence; active compounds read low; activity change, % (values are at about 110 or 230 µM); hit rate 0.15% among 480,000; AID 1347041, 2019; in the data active means activity change below about -30%; inconclusive means mostly about -25% to -30%;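 further: plate controls were DMSO wells for no effect and wells without enzyme for full effect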
#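 Enzyme activity of human lactate dehydrogenase 5 (2 nM; 0.06 mM NADH, 0.2 mM pyruvate, 5 min, RT) is measured via a resazurin/diaphorase fluorescence readout of residual NADH.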
# IDH1 R132H inh: qHTS for Inhibitors of mutant isocitrate dehydrogenase 1 (IDH1): qHTS; AID 602179, 2012; IDH1-R132H enzyme, NADPH consumption, diaphorase/resazurin fluorescence; Isocitrate dehydrogenase [NADP] cytoplasmic (Homo sapiens), O75874; hit rate 0.093% among 390,000; Potency, µM (titrated, usually from 76.6 µM), for inactives: top-dose activity change, negative = inhibition, usual class: inhibitors; further: potency means the concentration at half of the fitted maximal effect; on the % scale 0 is the no-effect control and ±100 the full control effect; nearly all actives have a fitted effect of over 65% in size
#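 IDH1-R132H (0.5 ug/mL dispensed) in pH 7.5 Tris buffer was preincubated 30 min with compound, then given a substrate mix of 0.016 mM NADPH and 2 mM alpha-KG for 80 min at room temperature; remaining NADPH was read by diaphorase/resazurin fluorescence.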
# * marks the source's active call; other numbers are inactive results; ? = inconclusive; . = no result given; & = joins results of further samples; [ ] = remark or other dose. Unless noted, the call rests on the fitted dose curve; in most records, active means well fitted curve in the direction sought with a large enough effect; inconclusive means small, poorly fitted or top-dose-only effect, or another doubt; inactive means no such curve, though single readings can be large; an effect the other way counts as inactive or inconclusive. Not all compounds are listed; the hit share may differ from the screen's.
# Start of the listing, in advance (2 entries):
cpd	mol	TrxR1 substrate	Vif-A3G inh	Glioma ERSR ind	PI4K2A inh	RXFP1 agonist	Vif-A3F inh	LDHA block	IDH1 R132H inh
1	COc1cc(/C=C/C(=O)OCC(=O)N2CCN(S(=O)(=O)c3ccc(C)cc3C)CC2)cc(Cl)c1OC	17%	-4%	-6%	0	2.0%	5%	-5	0%
2	COc1ccc(-c2cc(CNC(=O)CN3CCN(C)CC3)on2)cc1	7%[57.1 µM]	0%	-5%	4	-0.7%	-5%	-4	4%

# Main list, from the start:
cpd	mol	TrxR1 substrate	Vif-A3G inh	Glioma ERSR ind	PI4K2A inh	RXFP1 agonist	Vif-A3F inh	LDHA block	IDH1 R132H inh
1	COc1cc(/C=C/C(=O)OCC(=O)N2CCN(S(=O)(=O)c3ccc(C)cc3C)CC2)cc(Cl)c1OC	17%	-4%	-6%	0	2.0%	5%	-5	0%
2	COc1ccc(-c2cc(CNC(=O)CN3CCN(C)CC3)on2)cc1	7%[57.1 µM]	0%	-5%	4	-0.7%	-5%	-4	4%
3	Cc1ccc(C(=O)Nc2ccc(F)c(S(=O)(=O)N3CCOCC3)c2)s1	1%	2%	0%	-7	.	13%	-12	-2%
4	CC(C)C(C)(C#N)NC(=O)CSc1nnc(C(F)(F)F)n1C (centres undefined)	5%[57.1 µM]	-2%	-3%	-10	1.8%	0%	1	-7%
5	CCc1ccccc1NC(=S)N1CCCCCC1	-2%	-8%	-2%	5	1.1%	-8%	-10	-14%
6	CCOC(=O)c1cc(C#N)c(Oc2ccccc2)nc1-c1ccccc1	9%	-1%	-4%	1	0.1%	-2%	-2	3%
7	CC1=C(C(=O)Nc2ccccn2)C(c2cccnc2)n2nnnc2N1 (centres undefined)	13%	-1%	-1%	-1	1.3%	0%	1	1%
8	C=CCNc1nc(-c2ccccc2)c(C(=O)OCC)cc1C#N	-6%	?	-9%	2	0.3%	0%	-3	12%
9	CCc1cccc(NC(=O)Nc2cn(C)c(=O)c3ccccc23)c1	10%	-7%	1%	-27	1.1%	3%	2	-19%
10	CC(=O)c1cccc(NC(=O)Cn2cnc(S(=O)(=O)N3CCC(C)CC3)c2)c1	4%	-2%	-4%	0	0.8%	1%	-1	2%
11	COc1ccc(-c2nnc(SC)o2)c(OC)c1	-3%	-3%	5%	-2	3.1%	3%	-6	4%
12	OC(COc1cc(Cl)c(Cl)cc1Cl)CN1CCN(c2ncccn2)CC1 (centres undefined)	3%	6%	-4%	-2	-0.6%	-4%	-5	1%
13	COc1cc(O)c(CC=C(C)C)c(O)c1C(=O)CCc1ccc(O)cc1	-8%	-7%	-3%	-2	0.0%	0%	0	-4%
14	CCOC(=O)c1cc(C#N)c(Oc2cccc(C(F)(F)F)c2)nc1-c1ccccc1	1%[57.1 µM]	-4%	-8%	-4	0.4%	8%	-7	5%
15	Cc1c(C(=O)Nc2ccc(C(C)C)cc2)sc2nc3n(c(=O)c12)CCC3	15%[11.4 µM]	?	-3%	3	18%	?	0	2%
16	COc1ccc(-c2cccc(CCC(=O)N3CCN(c4cc(C)ccc4C)CC3)c2)cc1	4%	3%	-1%	3	.	8%	0	4%
17	FC(F)(F)c1cc(-c2cccs2)nc2cc(-c3ccccc3)nn12	63%[activator]	0%	0%	0	12%	2%	-5	4%
18	CC(=O)NS(=O)(=O)c1cccnc1Nc1ccc(Cl)c(Cl)c1	-11%	-1%	2%	-4	-0.5%	1%	-2	5%
19	C=CCN1C=C2C(=O)C(C)(OC(=O)CCC(=O)OC)C(=O)C=C2C=C1C1CC1 (centres undefined)	-15%	-4%	-3%	-10	0.9%	1%	1	9%
20	CC(=O)c1sc2nsc(SCCN3CCCCC3)c2c1N	2%	-5%	5%	-15	3.2%	?	-5	-1%
21	CC(c1ccccc1)C1CC(=O)N(C2CCCCC2)C1=O (centres undefined)	-8%	-3%	-2%	5	0.1%	-2%	0	-4%
22	CC(=O)CSc1nnc(C(F)(F)F)n1C	6%[57.1 µM]	-1%	-4%	2	-1.5%	4%	9	8%
23	COc1ccccc1C(=O)c1ccccc1C(=O)c1ccccc1	1%[57.1 µM]	-7%	1%	0	.	-6%	-2	10%
24	CCCNC(=O)c1cc2nc(-c3ccccc3)cc(C(F)(F)F)n2n1	16%[57.1 µM]	-5%	2%	-4	-1.0%	-3%	-4	2%
25	Cc1ccc(C)c2nc3sc(C(=O)N4CCCc5ccccc54)c(N)c3cc12	1%	?	-1%	4	0.4%	?	-7	4%
26	CCC(Cn1nnc2ccccc2c1=O)NC(=O)Nc1ccccc1OC (centres undefined)	8%	2%	-1%	9	3.3%	1%	1	19%
27	COc1ccc(C)cc1NC(=O)c1cc2c(=O)n3ccccc3nc2n1C	17%[57.1 µM]	0%	1%	3	6.6%	8%	0&-7	0%
28	CC1(C)Cc2cccc(OCC(O)CN3CCN(c4ccccn4)CC3)c2O1 (centres undefined)	3%[57.1 µM]	1%	1%	-6	0.1%	-7%	-4	-1%
29	COc1ccc(-c2ccc(=O)[nH]n2)cc1	7%	-7%	-1%	11	5.3%	-12%	0	6%
30	COC(=O)c1ccc2c(c1)N(Cc1nc(-c3ccc(Cl)cc3)oc1C)C(=O)C1CCCN21 (centres undefined)	9%	-5%	-1%	0	.	-28%	-2	9%
31	CC1=C(C(=O)Nc2cccnc2)C(c2ccccc2)n2nc(SCc3ccccc3)nc2N1 (centres undefined)	-2%	-1%	-1%	4	7.2%	-4%	-15	-14%
32	O=C(NN=Cc1c(F)c(F)c(F)c(F)c1F)c1ccc(NS(=O)(=O)c2cccs2)cc1	-16%	-3%	-5%	2	.	0%	-4	2%
33	COC(=O)[C@H](C(C)C)N(Cc1ccccc1)S(=O)(=O)CCN1CCCC1	0%	0%	-3%	1	.	0%	-7	-1%
34	O=C(Nc1ccc(Cl)c(S(=O)(=O)N2CCOCC2)c1)c1cccs1	-5%	-4%	-2%	6	.	3%	-3	5%
35	O=C(Nc1ccccc1)c1cc(S(=O)(=O)N2CCOCC2)cs1	5%	0%	-2%	-1	0.3%	0%	-14	-1%
36	CCCCNc1nc(-c2ccccc2)c(C(=O)OCC)cc1C#N	51%	-26%	-6%	-2	1.6%	-1%	6	11%
37	NC(=O)c1cc2nc(-c3ccco3)cc(C(F)(F)F)n2n1	55%[activator][57.1 µM]	1%	-2%	2	4.0%	3%	-3	6%
38	CC(C)C[C@H](NC(=O)c1nc[nH]c1C(=O)N1CCNCC1)C(=O)OC(C)(C)C	0%[57.1 µM]	5%	-5%	-7	-1.3%	0%	-5	17%
39	O=C(CSc1nc(O)cc(=O)[nH]1)C1CC1	-5%	-4%	-1%	-9	2.7%	.	0	-2%
40	O=C(O)CN1C(=O)SC(Nc2ccc(C(=O)O)cc2)C1=O (centres undefined)	-6%	0%	-5%	-8	0.1%	2%	-6	4%
41	CC(C)(C)c1ccc(C(=O)Nc2cc(-c3ccccc3)nn2-c2ccccc2)cc1	-2%[57.1 µM]	1%	-2%	-9	-0.7%	2%	-3	6%
42	COc1ccc(OC)c(NC(=O)c2c(C)oc3ncnc(N4CCOCC4)c23)c1	0%	1%	0%	1	-0.3%	-2%	23	-6%
43	COc1ccc(C(=O)Nc2ccc(C3(C#N)CCCC3)cc2)cc1OC	-1%	0%	2%	-3	-0.6%	2%	-1	11%
44	O=C1Nc2ccccc2C1=Nc1ccc(S(=O)(=O)Nc2nccs2)cc1	-19%[57.1 µM]	1%	-2%	-1	2.8%	-8%	2	-19%
45	CCOc1ccc(NC(=O)c2ccc(-c3csc(C)n3)cc2)cc1	7%[57.1 µM]	2%	-3%	3	19%	3%	-4	-2%
46	COc1ccc(NC(=O)c2sc3nc(-c4cc5cccc(OC)c5oc4=O)[nH]c(=O)c3c2C)cc1	5%[11.4 µM]	1%	0%	-3	1.7%	7%	4	8%
47	COc1ccccc1NC(=O)C(=O)N(c1cccnc1)C(C(=O)NC(C)(C)C)c1ccccc1 (centres undefined)	13%[57.1 µM]	0%	-6%	37	0.5%	6%	-7	9%
48	Cc1ccc(NC(=O)CCC(=O)N2CCOc3ccccc32)c(Cl)c1	-1%[57.1 µM]	-1%&-4%	-3%&-1%	1&2	-1.0%&23%	1%&-8%	0&4	-3%&-4%
49	COC(=O)c1cc(=O)nc2sc3cc(OC)ccc3n12	-1%[57.1 µM]	-11%	-4%	-11	4.7%	2%	-1	7%
50	CC(C)CCn1c(N2CCc3ccccc3C2)nc2c1c(=O)[nH]c(=O)n2C	7%	0%	1%	2	3.2%	-1%	-7	13%

# Continued:
cpd	mol	TrxR1 substrate	Vif-A3G inh	Glioma ERSR ind	PI4K2A inh	RXFP1 agonist	Vif-A3F inh	LDHA block	IDH1 R132H inh
51	CC1CCN(S(=O)(=O)c2cn(CC(=O)Nc3ccc(C#N)cc3)cn2)CC1	0%	-7%	-4%	-5	1.5%	-3%	-6	0%
52	CC(=O)c1cn(Cc2ccccc2)c(=O)n(Cc2ccc(F)cc2)c1=O	-2%[57.1 µM]	1%	-2%	0	-1.8%	-8%	-6	4%
53	Cc1ccc(S(=O)(=O)Nc2nc3ccccc3nc2Nc2cccc(S(=O)(=O)N3CCCC3)c2)cc1	17%	-268%	2%	-10	3.4%	7.1µM*	-3	-2%
54	FC(F)(F)c1ccccc1NC(=S)NN1CCOCC1	-4%	1%	-2%	4	0.4%	0%	0	3%
55	O=C(Nc1nc(SCc2ccc(F)cc2)ns1)c1ccco1	-5%	2%	3%	7	-0.1%	-2%	1	2%
56	O=C(OCC(=O)N1CCN(S(=O)(=O)c2ccc(Cl)cc2)CC1)C1CCC1	-3%	1%	-4%	5	0.2%	-22%	-5	2%
